D2 potentiator: human D2 receptor positive allosteric modulation. potentiation, % (test concentration not listed). 360,000 compounds, 0.23% hits. P14416. DiscoveRx D2 beta-arrestin cells, luminescence, 90 min; 100% = 57 uM dopamine signal. AID 624464; active = potentiation of 50% or more; inconclusive = 30% to 50%; inactive = 30% or less;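 note: compound concentration not given in the record; tested on top of an EC20 dose of dopamine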
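PathHunter D2 cells, attached overnight at 37 deg C, received compound in DMSO plus dopamine at EC20 (50 nM final) for 90 min at 37 deg C. Beta-arrestin recruitment was read as luminescence after 1 h with detection reagent at ambient temperature.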
CtBP-E1A inh: inhibitors of CtBP/E1A interaction; AlphaScreen GST-E1A/His-CtBP binding, 1536-well; hits give low values; control for the full effect not named in the record; activity change, % (test concentration not listed); 340,000 compounds, 0.49% hits; in the data active means activity change below about -65%; inconclusive means about -30% to -65%; inactive means above about -30%; note: % is set by controls: 0 for no effect and ±100 for the full control effect
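Protein mix (5X: 125 nM each GST-E1A, His-CtBP) was incubated with pinned compound 2 h at 37 deg C in dark, in 50 mM Tris pH 8.0 buffer with 300 mM NaCl. Glutathione donor and nickel acceptor beads followed; AlphaScreen signal read after 1 h.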
TRPV1 PAM: enhances activation of the human vanilloid receptor TRPV1. 320,000 compounds, 0.02% hits. Q8NER1. AID 540277. TRPV1-expressing cells, Fluo-8 calcium influx, capsaicin EC20 potentiation; host cell line not named in the record; control for the full effect not named in the record. potentiation, % at 8.33 µM; active means potentiation above 80%; inconclusive means 30% to 80%; inactive means below 30%; note: 0% is about no effect
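TRPV1-expressing cells were cultured overnight at 35.5C and loaded with Fluo-8 calcium dye for 40 to 90 min at room temperature. After a 10 s baseline, compound was added and calcium influx was read kinetically for 3 min (ex 480/em 520 nm).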
Sfp PPTase inh: Sfp phosphopantetheinyl transferase inhibition. Biochemical Sfp PPTase activity, qHTS. Potency, µM, for the others: max response, negative = inhibition, usual class: inhibitors. 310,000 compounds, 3.5% hits. AID 1490; active = well fitted inhibition curve with a large enough effect; inconclusive = small, poorly fitted or top-dose-only effect, or another doubt; inactive = no such curve, though single readings can be large or run the other way;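 note: the enzyme is Sfp with the accession as filed and its product quenches rhodamine fluorescence; potency is the fitted concentration of half-maximal effect; 0% = enzyme reaction without inhibitor and -100% = no enzyme wells; top concentration of the series not given in the record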
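After 15 min at room temperature with compound, 15 nM Sfp received 5 uM rhodamine-CoA plus 12.5 uM BHQ-2-ybbR (50 mM Hepes pH 7.6, 10 mM MgCl2). Rate came from the fluorescence difference over 30 min, ex 525/em 598 nm.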
D2 agonist: agonists of human D2 dopamine receptor (beta-arrestin); P14416; DiscoveRx PathHunter D2 beta-arrestin, luminescence, 90 min; 100% = 57 uM dopamine signal; activation, % (no concentration beside the values); 360,000 compounds, 0.084% hits; AID 624465; in the data active = activation above about 40%; inconclusive = about 15% to 40%; inactive = below about 15%; note: compound concentration not given in the record; the text of the record calls up to 30% inactive
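Agonist mode: compounds alone added to overnight-plated D2 PathHunter cells for 90 min at 37 C, with 57 uM final dopamine (EC100) defining full response. Beta-arrestin recruitment detected by chemiluminescent reagent, read after 1 h at ambient temperature.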
PINK1 expr mod: changes PINK1 expression; AID 624263; 410,000 compounds, 0.2% hits; Potency, µM (series often up to 76.6 µM), for the others: at the top dose activation (PINK1 increase), actives largely listed as activators; PINK1 immunofluorescence, high-content cytometry, 24 h; active = well fitted activation curve with a large enough effect; inconclusive = small, poorly fitted or top-dose-only effect; inactive = flat fitted curve, though single readings scatter; cell line not stated here;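 note: potency is the fitted concentration of half-maximal effect; % of control where 0% means no effect; nearly all actives have a fitted effect of over 65% in size; a mitochondrial uncoupler was the plate control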
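Measures PINK1 amount and localization on or inside mitochondria by immunofluorescence. Stable cells get compounds at 5 concentrations for 24 hours before fixation and staining; CCCP controls included.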
Six1-Eya2 inh: blocks human Six1 binding to Eya2; 360,000 compounds, 0.56% hits; activity change, % (concentration not given with the values); Q15475+O00167; AlphaScreen GST-Six1/His-Eya2 binding, biochemical; hits give low values; control for the full effect not named in the record; in the data active = activity change below about -65%; inconclusive = about -30% to -65%; inactive = above about -30%; note: % is set by controls: 0 for no effect and ±100 for the full control effect
Target sequence (O00167 whole entry, looked up): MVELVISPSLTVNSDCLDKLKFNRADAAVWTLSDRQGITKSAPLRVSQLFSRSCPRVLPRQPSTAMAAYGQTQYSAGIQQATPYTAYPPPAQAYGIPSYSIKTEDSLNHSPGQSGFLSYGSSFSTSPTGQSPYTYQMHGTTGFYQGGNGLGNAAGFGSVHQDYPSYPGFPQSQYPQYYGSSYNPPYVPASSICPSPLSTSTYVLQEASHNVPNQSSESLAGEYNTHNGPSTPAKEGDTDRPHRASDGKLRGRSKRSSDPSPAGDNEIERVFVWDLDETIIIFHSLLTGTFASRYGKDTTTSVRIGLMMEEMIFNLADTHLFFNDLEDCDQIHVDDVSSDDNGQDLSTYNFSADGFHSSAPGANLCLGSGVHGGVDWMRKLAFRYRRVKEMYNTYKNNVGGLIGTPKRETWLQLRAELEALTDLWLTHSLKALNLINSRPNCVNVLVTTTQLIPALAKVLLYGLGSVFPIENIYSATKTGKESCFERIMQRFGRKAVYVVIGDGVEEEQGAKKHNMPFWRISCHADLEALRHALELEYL
Target sequence (Q15475 whole entry, looked up): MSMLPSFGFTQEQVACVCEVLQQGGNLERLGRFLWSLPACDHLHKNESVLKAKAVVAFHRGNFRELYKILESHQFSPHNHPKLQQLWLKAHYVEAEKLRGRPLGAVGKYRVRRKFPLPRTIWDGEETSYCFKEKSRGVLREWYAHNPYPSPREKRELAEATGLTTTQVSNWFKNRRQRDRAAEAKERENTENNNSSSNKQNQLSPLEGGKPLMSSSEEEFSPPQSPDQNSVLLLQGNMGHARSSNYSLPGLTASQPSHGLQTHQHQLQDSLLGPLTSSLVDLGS
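AlphaScreen luminescence read after one hour at 37 °C in darkness. Pin-transferred compounds met GST-Six1 and His-Eya2 protein (5X stock 250 nM/500 nM) plus glutathione donor and Ni-chelate acceptor beads (5X, 50 ug/mL).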
Starred values were filed as active, the others as inactive; u = inconclusive; x = no result given; & = joins results of further samples; [ ] = another dose, or the depositor's remark.

The line under a structure holds: D2 potentiator	CtBP-E1A inh	TRPV1 PAM	Sfp PPTase inh	D2 agonist	PINK1 expr mod	Six1-Eya2 inh
> CCC(C)n1nccc1NC(=O)C(C)Cl (centres undefined)
  -1	7	-16	12%	6.4	3.4%	7
> Cc1noc(C)c1C(=O)Nc1ccc(N(C)C)cc1
  9	-23	-18	11%	7.1	-1.6%	-6
> CC1(C)CC(=O)C=C(c2cccc3c2oc2ccccc23)C1
  -12	5	x	x	-4.1	4.7%	6
> Cc1ccccc1OCC(=O)Nc1cc(Cl)ccc1Oc1ccccc1
  1	2	4	-20%	-4.2	18%	8
> Cc1ccc(CC23CN4CCN(CC(C4)C2O)C3)c(C)c1 (centres undefined)
  -2	-11	-2	2%	-3.5	2.3%[38.3 µM]	-8
> Cn1cccc1CC(=O)N/N=C/C=C/c1ccco1
  7	0	4	14µM*	0.7	1.7%	u
> COc1cc(/C=C2\C(=N)N3N=C(CC(=O)N4CCOCC4)SC3=NC2=O)cc(OC)c1OC
  -11	-21	-16	13%	-3.8	-1.1%	-1
> O=C(c1cc2ccccc2o1)N(Cc1nnc(-c2ccccc2Cl)o1)C1CC1
  -1	-23	-13	x	2.4	1.1%	-7
> CSc1nc2ccc(NC(=O)C3=NN(c4ccccc4)C(=O)CC3)cc2s1
  -11	-3	3	-5%	-4.2	-2.4%	-1
> CC(C)CC(N)c1csc(Nc2ccc(C(F)(F)F)cn2)n1 (centres undefined)
  -6	u	x	x	3.9	-0.9%	-5
> Cc1ccc(CNC(=O)C2CCN(S(=O)(=O)N3CCC(C)CC3)CC2)cc1
  -15	-9	x	x	-2.4	-0.3%&1.7%	6
> O=C1CS/C(=N\N=C\c2ccccc2Cl)N1CC1CC1
  -16	x	-1	11%	-3.8	5.9%	-2
> CC(=O)N1c2ccc(S(=O)(=O)NCC3CCC(C(=O)N4CCCCC4)CC3)cc2CC1C (centres undefined)
  -1	-3	5	5%	1.0	2.6%	2
> O=C(Cn1nc(-c2cccs2)ccc1=O)Nc1ccc(Br)cc1
  -7	-3	3	7%	-2.8	-3.2%	-3
> CCOC(=O)N1CCC(N(CCOC)C(=O)Nc2ccc(C)c(C)c2)CC1
  -9	-5	-3	-2%	-1.6	-1.2%[38.3 µM]	1
> COc1ccc(S(=O)(=O)N(CC(=O)N2CCOCC2)c2cc(Cl)ccc2OC)cc1OC
  -12	0	-6	17%	0.3	u	4
> COc1ccccc1N1CCN(C(=O)CCCn2c(=O)[nH]c3ccsc3c2=O)CC1
  6	-1	23	23%	2.0	0.6%	3
> Cc1c(S(=O)(=O)c2ccccn2)c(N)n(Cc2ccccc2)c1C
  -11	-4	u	3%	-2.9	-0.1%	0
> O=C(O)CN1C(=O)/C(=C\c2cc(Br)ccc2OCc2ccc(Cl)cc2Cl)SC1=S
  -6	x	-4	u	-6.5	1.5%	-23
> COc1ccc(CCNC(=O)c2ccc(CNS(=O)(=O)c3ccc(C(C)(C)C)cc3)cc2)cc1OC
  17	5	26	11%	3.9	9.2%	12
> COc1ccccc1C(=O)NC(=S)Nc1ccc(N2CCN(C(=O)c3ccco3)CC2)cc1
  -6	-9	13	-13%	-2.8	-0.7%	-4
> CC(NCc1ccc(OCC(N)=O)cc1)C12CC3CC(CC(C3)C1)C2 (centres undefined)
  -4	2	-10	-4%	-1.3	2.0%	13
> O=C(C/C=N/OCc1c(Cl)cccc1Cl)c1cnc(-c2ccccc2)s1
  -17	-5	21	-7%	-0.3	11%	-5
> C/C(Cc1ccccc1)=N\NC(=O)CNC(=O)c1ccc(C(C)(C)C)cc1
  -16	2	2	-2%	-4.7	0.0%	5
> N[C@@H](Cc1ccccc1)C(=O)N1CCC(C(=O)NCC(=O)Nc2ccc(F)cc2)CC1
  -12	4	-10	-3%	1.2	0.0%	-2
> Nc1nc(-c2ccc3c(c2)CCCC3)cs1
  -9	-8	11	-2%	-3.8	3.8%	-3
> Cc1ccccc1C(=O)N1CCC(C(=O)NC2CCCCC2)CC1
  -1	8	11	10%	6.6	3.2%	4
> CC(=O)c1ccc(OCc2cccc(C(F)(F)F)c2)cc1O
  0	21	-2	5%	-3.0	3.0%	19
> O=C(CCC(=O)N1CCOc2ccc(Cl)cc21)NCCCN1CCN(c2ccccc2F)CC1
  -11	-7	13	2%	0.7	4.2%	-2
> O=C(NC1CCCCC1)c1cccnc1C(=O)O
  -17	-2	4	79µM*	-1.4	-1.2%[38.3 µM]	-2
> Cc1nn(Cc2ccccc2Cl)c(C)c1NC(=O)c1nc2ncccn2n1
  -12	6	3	4%	-0.4	0.1%	10
> Cc1ccc(CN(C)CC(=O)Nc2cccc([N+](=O)[O-])c2)o1
  -8	-3	-11	8%	-1.6	0.7%	-7
> O=S(=O)(Nc1cccc(-c2ccc3nncn3n2)c1)c1cccc(F)c1
  -9	-9	14	x	3.8	-0.1%	2
> COc1ccc(C)cc1NC(=O)c1ccc(OCc2c(C)noc2C)cc1
  -2	-15	x	x	0.4	9.3%	1
> CCc1ccc(NCc2ccc(OC)c(Cn3ccnc3)c2)cc1
  2	-5	-8	5%	5.6	6.5%	-30
> N#C/C(=C/c1cc(Br)cs1)C(=O)NCC1CCCO1 (centres undefined)
  3	9	7	11%	-4.2	3.3%	2
> CCCCc1nc2sc3c(c2c(=O)[nH]1)CC(C)(C)OC3
  2	0	x	x	-0.8	6.9%	0
> Cc1ccc(NC(=O)c2ccccc2NC(=O)c2cccs2)cc1
  -4	1	-9	-3%	-5.1	6.1%	-1
> Cc1ccc(NC(=O)c2cc3cccc([N+](=O)[O-])c3[nH]2)cc1
  -17	-10	-16	5%	-1.9	5.2%	0
> COc1ccc(Nc2nc(C(=O)NCCCN3CCOCC3)cs2)cc1
  -8	-14	3	7%	1.9	1.0%	-4

Continued, overlapping the part above by 2 compounds.
The line under a structure holds: D2 potentiator	CtBP-E1A inh	TRPV1 PAM	Sfp PPTase inh	D2 agonist	PINK1 expr mod	Six1-Eya2 inh
> Cc1ccc(NC(=O)c2cc3cccc([N+](=O)[O-])c3[nH]2)cc1
  -17	-10	-16	5%	-1.9	5.2%	0
> COc1ccc(Nc2nc(C(=O)NCCCN3CCOCC3)cs2)cc1
  -8	-14	3	7%	1.9	1.0%	-4
> O=S(=O)(Nc1ccccc1OC(F)F)c1ccc(S(=O)(=O)N2CCCC2)cc1
  6	24	1	x	-1.7	0.5%	1
> CCc1nnc(NC(=O)C2CCN(C(=O)NC3CCCCC3)CC2)s1
  4	5	9	9%	-0.8	0.4%	3
> CCN(CC)C(=O)COc1ccc(/C(C)=N/NC(=O)c2ccccc2O)cc1
  -11	6	-17	20%	-2.9	-2.0%	-6
> Cc1cc(C)cc(N2CC(C)(C)C2=O)c1
  -3	9	0	u	1.7	-0.1%	14
> CCN(CC)S(=O)(=O)c1ccc2c(c1)N(CC(=O)NCc1ccco1)C(=O)CO2
  -6	2	u	u	-0.3	-0.9%	2
> COc1ccccc1Cc1c(-c2ccc(C)cc2)nc2c(C)cc(Br)cn12
  -6	1	x	x	-7.5	0.3%	-3
> NS(=O)(=O)c1ccc(CCNC/C=C/c2ccccc2)cc1
  -57	x	u	-7%	-2.2	-1.3%	-6
> Cc1cc(Nc2ccc(Cl)cc2)nc(-c2ccccc2O)n1
  -4	x	9	12%	15	7.1%	8
> CSc1sc(C(=O)NN)c2c1C1(CCC2)SCCS1
  2	2	13	18%	4.7	4.9%	1
> COc1cc(/C=C/C(=O)c2c(O)ccc3c(C)cc(=O)oc23)ccc1O
  -10	-14	16	-16%	-3.3	-2.5%&2.0%	-11
> Cc1ccc(S(=O)(=O)c2ccc(Cl)cc2)cc1S(N)(=O)=O
  -3	-2	1	24%	-2.7	2.5%	-1
> O=C(CCC(=O)N1CCN(S(=O)(=O)c2ccccc2)CC1)c1cccs1
  -5	-5	-25	-14%	-0.2	-3.3%[38.3 µM]	0
> Cc1ccc(F)cc1C(=O)N1CCCC(c2cc(C(=O)NCc3ccccc3)no2)C1 (centres undefined)
  17	7	x	x	13	3.0%	2
> O=C(c1ccco1)N1CCN(C(c2ccc(F)cc2)c2nnnn2CC2CCCO2)CC1 (centres undefined)
  3	4	28	-15%	-3.3	-2.2%	8
> COCCNC(=O)C1(C)CCN(Cc2ccc(C(C)C)cc2)C1 (centres undefined)
  -7	6	x	x	-3.8	0.4%	5
> Cc1ccccc1C1NC(=O)Cc2ccccc21 (centres undefined)
  -6	-12	3	8%	-0.3	0.2%	10
> CCOC(=O)[C@H]1[C@H]2COc3ccccc3[C@@H]2N2C(=O)CNC(=O)[C@@]12C
  -10	-17	9	x	0.4	-0.7%	-2
> COc1ccc(C[C@H]2CN3C(=NC[C@@H]3Cc3ccc(O)cc3)N2C[C@H](C)NC(=O)CCC2CCCCC2)cc1
  -22	-8	24	-2%	-5.0	6.6%	-6
> Cc1ccc(N(C(=O)c2snc(C(N)=O)c2N)C(C(=O)NC2CCCC2)c2ccc(C)o2)cc1 (centres undefined)
  -1	-7	4	14%	0.7	-1.3%	-2
> CCOc1ccc(N(CC(=O)Nc2ccc(Br)cc2)S(C)(=O)=O)cc1
  -38	x	15	14%	-5.7	2.3%	7
> CCCCc1nnc(NC(=O)CCSc2ccccc2)s1
  -5	0	16	-1%	-0.6	-2.0%[38.3 µM]	2
> Cc1cccc(OC(C)C(=O)N(Cc2cccs2)C2CCS(=O)(=O)C2)c1C (centres undefined)
  -2	-1	7	-4%	-2.3	-2.5%[38.3 µM]	3

Assay outcomes from PubChem.
